Hedgehog cleavage = Drosophila hedgehog isoform A inhibitors, primary screen, biochemical, plate reader, single concentration (AID 588832); 8,000 tested, under 10 active; inhibition, % at 30.3 µM; Biochemical plate reader assay, Hedgehog inhibition; active compounds read high; in the data active = inhibition from about 57%;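 note: 0% = neutral control wells and 100% = positive control wells; cholesterol-driven self-cleavage of fly hedgehog protein by fluorescence polarization; read one hour after cholesterol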
The depositor's hits bear a star. This is a subset; count on the stated rates, not on these rows.

compound	Hedgehog cleavage
Cc1cc(C)cc(NC(=O)CCNC(=O)N2C[C@H]3C[C@@H](C2)c2cccc(=O)n2C3)c1	4
ClC1=C(Cl)C2(Cl)C3C(Cl)C=CC3C1(Cl)C2(Cl)Cl (stereo unspecified)	9
CC1Oc2cc3c(-c4c(O)cc(O)c5c(O)c6c(cc45)OC(C)C(C)C6=O)c(O)cc(O)c3c(O)c2C(=O)C1C (stereo unspecified)	7
CC1=NCCc2c1[nH]c1ccccc21	7
COc1cc2c(cc1O)CC1c3c(cc(O)c(OC)c3-2)CCN1C (stereo unspecified)	5
COc1ccc(/C=C/C(=O)NC(=S)N2C[C@H]3C[C@H](C2)c2cccc(=O)n2C3)cc1OC	4
CCC1(CC)C(=O)NC(=O)N(c2ccccc2)C1=O	7
Brc1ccccc1	3
COC(=O)c1ccccc1NC(=O)N1C[C@@H]2C[C@@H](C1)c1cccc(=O)n1C2	9
COc1ccc(C(=O)N2C[C@H]3C[C@@H](C2)c2cccc(=O)n2C3)cc1OC	2
CC(C#N)CCC#N (stereo unspecified)	5
COc1cccc(OC)c1C(=O)NC(=S)N1C[C@H]2C[C@H](C1)c1cccc(=O)n1C2	9
Cc1c(C)c2cc(Cl)c(OCC(=O)N3C[C@H]4C[C@@H](C3)c3cccc(=O)n3C4)cc2oc1=O	2
CN1CCCCC1c1ccc(-c2cccnc2)nc1 (stereo unspecified)	5
CCOP(=S)(OCC)Oc1nc(Cl)c(Cl)cc1Cl	4
CC(=O)OC1(c2ccccc2)CCN(C2CCCCC2)CC1C (stereo unspecified)	-2
NCCc1ccccc1	2
COc1cc(O)cc2c1cc([N+](=O)[O-])c1c(C(=O)O)cc3c(c12)OCO3	7
CC12CCC(=O)C=C1CCC1C2CCC2(C)C(O)CCC12 (stereo unspecified)	2
O=C(/C=C/c1ccccc1)NC(=S)N1C[C@H]2C[C@H](C1)c1cccc(=O)n1C2	7
Cc1ccc([N+](=O)[O-])cc1	4
ClCC(Br)CBr (stereo unspecified)	2
COC(=O)C1=CO[C@H](C)[C@H]2CN3CC[C@@]4(C(=O)Nc5ccccc54)[C@@H]3C[C@H]12	3
O=C(CCC(=O)N1C[C@H]2C[C@@H](C1)c1cccc(=O)n1C2)NCc1ccccc1	4
ClCCOCOCCCl	9
CC(C)(C)c1ccccc1O	9
CCc1cc(=O)oc2cc(OCC(=O)N3C[C@H]4C[C@@H](C3)c3cccc(=O)n3C4)c(Cl)cc12	2
CC1(C)CN=C(Nc2ccc(F)c(F)c2)S1	1
CCN1C[C@]2(COC)CC[C@H](O)[C@@]34C5C[C@H]6[C@H](O)C5[C@](O)(C[C@H]6OC)[C@@H]([C@H](OC)C23)[C@@H]14 (stereo partly specified)	9
CC(=O)C1CCC2C3CC(O)C4CC(O)CCC4(C)C3CCC12C (stereo unspecified)	13
COC(=O)C1=COC(C)C2CN3CCc4c([nH]c5cc(OC)ccc45)C3CC12 (stereo unspecified)	5
COc1ccc(OC)c(NC(=O)N2C[C@H]3C[C@@H](C2)c2cccc(=O)n2C3)c1	-2
Cc1cccc(NC(=O)N2C[C@H]3C[C@@H](C2)c2cccc(=O)n2C3)c1	5
c1cc2c(cc1C1OCC3C(c4ccc5c(c4)OCO5)OCC13)OCO2 (stereo unspecified)	14
c1ccc(Nc2ccc3ccccc3c2)cc1	5
COc1ccc(CC(=O)N2C[C@H]3C[C@@H](C2)c2cccc(=O)n2C3)cc1	9
COc1ccc(/C=C/C(=O)NC(=S)N2C[C@H]3C[C@H](C2)c2cccc(=O)n2C3)cc1	5
Cc1cc(C)c2c(c1)-c1cc(C)nn1C(c1cccnc1)N2 (stereo unspecified)	4
CN1C2CCC1CC(=NO)C2	2
C[C@H]1C/C=C/[C@H]2[C@H](O)[C@H](C)[C@@](C)(O)[C@H]3[C@H](Cc4ccccc4)NC(=O)[C@]32[C@H](O)/C=C/[C@](C)(O)C1	7
CC(=O)O[C@@]12CO[C@@H]1C[C@@H](O)[C@@]1(C)C(=O)[C@H](O)C3=C(C)[C@@H](OC(=O)[C@H](O)[C@@H](NC(=O)c4ccccc4)c4ccccc4)C[C@@](O)([C@@H](OC(=O)c4ccccc4)C12)C3(C)C (stereo partly specified)	7
C1CC2OC2CC1C1CO1 (stereo unspecified)	2
CC(=O)c1ccc2c(c1)OCO2	7
COc1ccc2c(C)c(CC(=O)N3C[C@H]4C[C@@H](C3)c3cccc(=O)n3C4)c(=O)oc2c1C	2
Cc1cc(=O)oc2c(C)c(OCC(=O)N3CCC(C(=O)O)(c4ccccc4)CC3)ccc12	12
CCCOC(=O)c1ccccc1C(=O)OCCC	4
O=C(COc1ccc2ccc(=O)oc2c1)N1CCC(C(=O)O)(c2ccccc2)CC1	4
O=C(CCNC(=O)N1C[C@H]2C[C@@H](C1)c1cccc(=O)n1C2)Nc1ccc(F)cc1	12
Cc1c(C)c2ccc(OCC(=O)N3C[C@H]4C[C@@H](C3)c3cccc(=O)n3C4)cc2oc1=O	-2
C/C=C(\C)C(=O)N[C@@H](c1ccccc1)[C@@H](O)C(=O)O[C@H]1C[C@@]2(O)[C@@H](OC(=O)c3ccccc3)C3[C@](C)(C(=O)[C@H](O)C(=C1C)C2(C)C)[C@@H](O)C[C@H]1OC[C@@]31OC(C)=O (stereo partly specified)	3
Cc1cc(OCC(=O)N[C@@H](Cc2ccccc2)C(=O)O)c2c3c(c(=O)oc2c1)CCC3	3
CCN(CC)N=O	-2
CC(=O)c1cccc(NC(=O)N2C[C@H]3C[C@@H](C2)c2cccc(=O)n2C3)c1	2
CCN1C[C@@]2(COC)C3[C@@H](OC)[C@H]4[C@@H]1[C@@]3(C1C[C@H]3[C@H](OC(=O)c5ccccc5)C1[C@]4(OC(C)=O)C[C@H]3OC)[C@@H](OC)C[C@H]2O (stereo partly specified)	2
Cc1c(C)c2ccc(OCC(=O)N3C[C@H]4C[C@@H](C3)c3cccc(=O)n3C4)c(C)c2oc1=O	13
C[C@@H]1C[C@@H]([C@H](O)CC2CC(=O)NC(=O)C2)C(=O)[C@@H](C)C1	5
CC1C(=O)CC2(C(C)C)CC12 (stereo unspecified)	7
C[C@]12CC[C@H](O)C[C@H]1CC[C@@H]1[C@@H]2CC[C@]2(C)C(=O)CC[C@@H]12	9
C=CC12CN(C)C3C4COC(CC41)C1(C(=O)Nc4ccccc41)C32 (stereo unspecified)	3
COc1cc2c(cc1OC)-c1c(OC)c(OC)cc3c1C(C2)N(C)CC3 (stereo unspecified)	7

Further results.
compound	Hedgehog cleavage
CCOc1ccc(NC(=O)CCNC(=O)N2C[C@H]3C[C@@H](C2)c2cccc(=O)n2C3)cc1	7
CC(=O)N1N=C2C3CCN(CC3)C2C1c1cccc2ccccc12 (stereo unspecified)	3
COc1cccc(CNC(=O)CCC(=O)N2C[C@H]3C[C@H](C2)c2cccc(=O)n2C3)c1OC	5
Cc1cc(OCC(=O)N2CCC(C(=O)O)(c3ccccc3)CC2)c2c(C)c(C)c(=O)oc2c1	0
O=C(c1ccccc1)c1cn(CC(=O)N2CCCC2)c2ccccc12	4

In another format: entries from further up.
> O=C(c1ccccc1)c1cn(CC(=O)N2CCCC2)c2ccccc12
  Hedgehog cleavage: 4
> CC(=O)N1N=C2C3CCN(CC3)C2C1c1cccc2ccccc12 (stereo unspecified)
  Hedgehog cleavage: 3
> CCOc1ccc(NC(=O)CCNC(=O)N2C[C@H]3C[C@@H](C2)c2cccc(=O)n2C3)cc1
  Hedgehog cleavage: 7

Looked up one by one from the list above:
compound	Hedgehog cleavage
COc1ccc(CC(=O)N2C[C@H]3C[C@@H](C2)c2cccc(=O)n2C3)cc1	9
CC(=O)OC1(c2ccccc2)CCN(C2CCCCC2)CC1C (stereo unspecified)	-2
Cc1cc(C)c2c(c1)-c1cc(C)nn1C(c1cccnc1)N2 (stereo unspecified)	4
CC(=O)O[C@@]12CO[C@@H]1C[C@@H](O)[C@@]1(C)C(=O)[C@H](O)C3=C(C)[C@@H](OC(=O)[C@H](O)[C@@H](NC(=O)c4ccccc4)c4ccccc4)C[C@@](O)([C@@H](OC(=O)c4ccccc4)C12)C3(C)C (stereo partly specified)	7
COC(=O)C1=CO[C@H](C)[C@H]2CN3CC[C@@]4(C(=O)Nc5ccccc54)[C@@H]3C[C@H]12	3
CCc1cc(=O)oc2cc(OCC(=O)N3C[C@H]4C[C@@H](C3)c3cccc(=O)n3C4)c(Cl)cc12	2
CC(=O)c1cccc(NC(=O)N2C[C@H]3C[C@@H](C2)c2cccc(=O)n2C3)c1	2
